From PubChem
VACV mCherry inh = vaccinia inhibition (mCherry reporter); Vaccinia virus mCherry reporter infection, fluorescence; about a quarter of the inactives have no number; Potency, µM (top dose mostly 36.5 µM), without a hit: at the top dose activity change, negative = inhibition, usual class: inhibitors; 310,000 tested, 0.63% active; AID 720579; active = well fitted inhibition curve with a large enough effect; inconclusive = small, poorly fitted or top-dose-only effect; inactive = no such curve, though single readings can be large or run the other way; tested in A549 cells; note: nearly all actives have a fitted effect of over 35% in size; inactives centre near -10
Vaccinia Venus = inhibitors of vaccinia virus (Venus reporter). Vaccinia virus Venus reporter expression, fluorescence. Potency, µM (titrated, usually from 36.5 µM), without a hit: top-dose activity change, negative = inhibition, hits mostly inhibitors. 330,000 tested, 0.46% active; active means well fitted inhibition curve with a large enough effect; inconclusive means small, poorly fitted or top-dose-only effect; inactive means no such curve, though single readings can be large or run the other way; tested in A549 cells; note: nearly all actives have a fitted effect of over 30% in size; inactives centre near -10
The depositor's hits bear a star; i = inactive; ? = inconclusive; nt = no result given; & = joins results of further samples; [ ] = dose if it differs, or a comment. % is set by controls: 0 for no effect and ±100 for the full control effect; potency is the fitted concentration of half-maximal effect.

SMILES	VACV mCherry inh	Vaccinia Venus
COc1ccc(C(CNC(=O)CCNS(=O)(=O)c2ccc(C)cc2)N2CCOCC2)cc1 (stereo unspecified)	i	-13%
CCC(C)N(C(=O)COC(=O)C1C(C(=O)OC)=C(C)NC(C)=C1C(=O)OC)C1CCS(=O)(=O)C1 (stereo unspecified)	-2%	-11%
NC(=O)CSc1nc2ccccc2c(=O)n1Cc1ccco1	nt	-7%
Cn1ccc2c(-c3cccnc3)cc3c(c21)C1CCC3O1 (stereo unspecified)	-2%	-4%
CC1=C(C(=O)N2CCOCC2)CC(CC(=O)NC2CCCC2)C(=O)N1Cc1ccccc1 (stereo unspecified)	6%	6%
CCCc1ccc(NC(C)C(=O)Nc2ccc(S(=O)(=O)N3CCOCC3)cc2)cc1 (stereo unspecified)	i	-22%
CC(C)(C)S(=O)N1Cc2cc(=O)n(Cc3ccccc3)c(CCO)c2[C@@H]1CCO (stereo partly specified)	-3%	10%
COC(=O)c1c(NC(=S)Nc2ccccc2Cl)sc(C)c1C	-8%	-17%
Cc1cccc(NC(=O)C2CC(=O)N/C(=N/N=C/c3ccco3)S2)c1 (stereo unspecified)	-12%	-6%
COc1ccc(C(=O)NNC(=O)C(C)NC(=O)c2ccccc2NC(=O)c2ccco2)cc1 (stereo unspecified)	i	-11%
CCOC(=O)c1c(C)c(P(=S)(N2CCOCC2)N2CCOCC2)n(C)c1C	nt	-8%
Cc1nc2sc(C(=O)c3ccccc3)c(N)c2c2c1CCCC2	?	?
CCOc1ccc(NC(=O)c2ccc3c(c2)CCN3S(=O)(=O)CC)cc1	i	-15%
Cc1ccc(C)c(S(=O)(=O)N2CCCCC2CCNC(=O)C(=O)NC2CC2)c1 (stereo unspecified)	-8%	-20%
CC(C)N1CCc2c(sc(NC(=O)c3ccc(C(=O)c4ccccc4)cc3)c2C(N)=O)C1	?	?
O=C(Cn1cnc2c(OCc3ccccc3)ncnc21)NCCCN1CCCC1=O	-13%	5%
CCOC(=O)c1ccc(NC(=O)CSc2ncccn2)cc1	-1%	-12%
Cc1onc(-c2ccccc2Cl)c1C(=O)Nc1ncn[nH]1	i	-15%
COc1ccccc1NOC(=O)CCOc1ccccc1	-11%	9%
CN1C=CC=C/C1=C1\SC(=S)N(N)C1=O	i	-5%
CCc1noc(C)c1C(=O)Nc1nc(-c2cc(C)ccc2C)c(C)s1	-12%	-8%
Cc1c(O)ccoc1=O	5%	8%
Cc1ccc(-n2c(COCC(=O)O)nc3cccnc32)cc1	2%	8%
C=CCNC(=O)C1CC(=O)N(c2ccc(OCC(=O)Nc3c(C)cccc3C)cc2)C1 (stereo unspecified)	i	-13%
O=C(O)c1cnccn1	i	-14%
Cn1cc(C(=O)c2ccc(Cl)cc2Cl)cc1C(=O)N/N=C(\N)COc1ccc(Cl)cc1	?	-25%
C=CCn1c(O)c(/C=C2/C=CC=N2)c(=O)[nH]c1=O	-11%	40%[activator]
C/C=C/C(=O)Nc1cccc(C(F)(F)F)c1	-16%	-7%
COc1ccccc1NC(=O)C(C)OC(=O)C1CCN(S(=O)(=O)c2ccc(C)c(C)c2)CC1 (stereo unspecified)	i	-19%
CSCCC(Nc1ncnc2ccc(Br)cc12)C(=O)O (stereo unspecified)	-2%	-16%

Rewritten with values under each structure: entries from further up.
Each structure is followed by: VACV mCherry inh | Vaccinia Venus
Cn1cc(C(=O)c2ccc(Cl)cc2Cl)cc1C(=O)N/N=C(\N)COc1ccc(Cl)cc1
    ? | -25%
C=CCn1c(O)c(/C=C2/C=CC=N2)c(=O)[nH]c1=O
    -11% | 40%[activator]
C/C=C/C(=O)Nc1cccc(C(F)(F)F)c1
    -16% | -7%
COc1ccccc1NC(=O)C(C)OC(=O)C1CCN(S(=O)(=O)c2ccc(C)c(C)c2)CC1 (stereo unspecified)
    i | -19%

Going on with the list:
SMILES	VACV mCherry inh	Vaccinia Venus
O=C(c1cc(Cl)cc(Cl)c1)N1CCC(=O)N([C@H](COCc2ccccc2)Cc2ccccc2)CC1	-18%	-10%
CCCCn1nnnc1SCC(=O)Nc1sc2c(c1C#N)CCCC2	-9%	-7%
Cc1noc(Cn2c(=O)c3ccccc3n(CC(=O)Nc3cccc(Cl)c3C)c2=O)n1	-13%	0%
O=C1NC(=S)S/C1=C\c1ccc(SCc2ccccc2)o1	-8%	-4%
NS(=O)(=O)c1cc(Br)c2c(c1)S(=O)(=O)NCN2	i	-6%
Cc1ccc2oc(-c3cc(NC(=O)c4cccs4)cc(C)c3O)nc2c1	-4%	4%
Cc1cccc(OCC(=O)Nc2ccc(C(=O)c3ccc(C(=O)O)cc3)cc2)c1	-1%	0%
CCSc1nc2sc3c(c2c(=O)n1CC)CC(C)(C)OC3	nt	26%
CCO[C@@H]1OC(C(=O)N2CCN(Cc3ccc4c(c3)OCO4)CC2)=C[C@H](C)[C@H]1CCCO	i	-17%
O=C(COc1ccccc1-c1ccccc1)NCc1cccc(Cl)c1	-19%	-9%
COc1ccc(NC(=O)c2cc(-c3cc(F)ccc3OC)n[nH]2)cn1	?	-20%
CCOc1ccc(Br)cc1S(=O)(=O)Nc1nc(CN2CCOCC2)nc2sc(C)c(C)c12	nt	-16%
O=C(C1COc2ccccc2O1)N1CCN(c2ccccn2)CC1 (stereo unspecified)	i	-11%
CC1CCCCN1CCCNC(=O)C1CCN(c2nnc(-n3cccc3)s2)CC1 (stereo unspecified)	-10%	1%
O=C(CSc1nc2c(c(=O)[nH]1)CN(Cc1ccc3c(c1)OCO3)CC2)Nc1cc(F)ccc1F	-6%	2%

Reprinted at random: five compounds from above
SMILES	VACV mCherry inh	Vaccinia Venus
CCOC(=O)c1ccc(NC(=O)CSc2ncccn2)cc1	-1%	-12%
Cc1ccc(C)c(S(=O)(=O)N2CCCCC2CCNC(=O)C(=O)NC2CC2)c1 (stereo unspecified)	-8%	-20%
COc1ccccc1NOC(=O)CCOc1ccccc1	-11%	9%
CCOc1ccc(Br)cc1S(=O)(=O)Nc1nc(CN2CCOCC2)nc2sc(C)c(C)c12	nt	-16%
CCOc1ccc(NC(=O)c2ccc3c(c2)CCN3S(=O)(=O)CC)cc1	i	-15%

One compound at a time, as listed above. Values in the order: VACV mCherry inh | Vaccinia Venus
O=C(C1COc2ccccc2O1)N1CCN(c2ccccn2)CC1 (stereo unspecified) reads i | -11%
O=C(CSc1nc2c(c(=O)[nH]1)CN(Cc1ccc3c(c1)OCO3)CC2)Nc1cc(F)ccc1F reads -6% | 2%
CCCCn1nnnc1SCC(=O)Nc1sc2c(c1C#N)CCCC2 reads -9% | -7%

Additional results:
SMILES	VACV mCherry inh	Vaccinia Venus
Nc1nnc2c(C(F)(F)F)nc3ccccc3n12	-1%	-13%
Cc1cnc(C(=O)OCC(=O)c2ccc[nH]2)cn1	-3%	0%
COC(=O)c1ccc(NC(=O)C(=O)NCCc2csc3nc(-c4ccccc4F)nn23)cc1	-20%	-15%
Fc1ccc(Nc2c(-c3ccco3)nc3ccccn23)cc1	-12%&-18%	-18%&-10%
Cc1noc(C)c1COC(=O)c1cccnc1Cl	-8%	0%
COc1ccc(C2NCCc3sccc32)cc1 (stereo unspecified)	-17%	-24%
C[C@@H]1CN([C@@H](C)CO)C(=O)c2cc(NS(C)(=O)=O)ccc2O[C@@H](C)CCCCO[C@H]1CN(C)C(=O)Nc1ccc2c(c1)OCO2	4%	-17%
C[C@H](CO)N1C[C@H](C)[C@@H](CN(C)C(=O)Nc2ccc(C(F)(F)F)cc2)Oc2ccc(NC(=O)c3ccncc3)cc2C1=O	i	-9%
O=C(C[n+]1ccc(C(=O)c2ccccc2)cc1)Nc1ccccc1OC(F)F	-26%	-5%
O=C(Cc1cccc(NC(=O)C2CCCN(C(=O)C3CCC3)C2)c1)Nc1ccc(C(=O)N2CCOCC2)cc1 (stereo unspecified)	i	0%
Nc1ccc(C(Cc2ccnc3ccccc23)Cc2ccnc3ccccc23)cc1	-14%	-11%
CC12C=CC(=O)C=C1CCC1C2C(=O)CC2(C)C(=O)CCC12 (stereo unspecified)	i	1%
CCN(CC(=O)Nc1ccc(NC(C)=O)cc1)C(=O)CCCSc1nc2ccccc2[nH]1	-4%	-10%
COc1ccc2c(Cl)c(C(N)=O)sc2c1	i	-8%
COCCNC(=O)C(c1ccco1)N(C(=O)Cn1nnc2ccccc21)c1cccc(C)c1C (stereo unspecified)	-2%	-12%
CC(=O)Nc1ccc(/C=C/c2nc(-c3ccccc3O)n[nH]2)cc1	i	?
Cc1noc(C)c1COC(=O)C1CCN(C(=O)c2ccc(Cl)cc2)CC1	-8%	2%
O=C(Oc1ccc(Cl)cc1)c1cc(-c2ccc3c(c2)OCCO3)on1	-9%	3%
Cc1cc(-n2c(C)cc(C(=O)CSc3nnnn3-c3ccc(Cl)cc3)c2C)no1	-12%	-11%
CCOC(=O)C1CCN(C/C=C/c2ccccc2[N+](=O)[O-])CC1	-10%	-20%
O=C(COC(=O)c1ccccn1)Nc1cccc(Cl)c1	nt	-6%
CCS(=O)(=O)c1ccc2c(c1)NC(=O)C(CCO)O2 (stereo unspecified)	i	-10%
CCCN1CCN(C(=O)c2ccc3[nH]c(C)c(C)c3c2)CC1	?	-12%
Nc1ccc(O)cc1	-12%	21%
CC1(c2nnnn2-c2ccc3c(c2)OCCO3)CCC(=O)N1Cc1cccnc1 (stereo unspecified)	-1%	8%
NS(=O)(=O)c1ccc(NC(=O)CCn2c(=O)oc3ccccc32)cc1	4%	-9%
COc1ccc(NC(=O)COC(=O)c2cc(SC)ccc2Cl)c(OC)c1	i	-13%
COc1ccc(NC(=O)C[C@H]2C(=O)N(Cc3cccnc3)C[C@@H]2Cc2ccccc2)cc1	-14%	-11%
COc1ccccc1OC(C)C(=O)NNC(=S)NC1CCCC1 (stereo unspecified)	-3%	-1%
O=C(CSc1ccccn1)N/N=C/c1cccc([N+](=O)[O-])c1	-10%	-1%
CCNC(=O)C1(C)CCN1CCC(=O)c1ccc(C)cc1 (stereo unspecified)	60%[activator]	7%
CN(c1ccc(C(=O)N2CCN(Cc3ccccc3)CC2)cc1)S(=O)(=O)c1ccccc1	-2%	-13%
O=C(Cn1ncn2c(cc3ccccc32)c1=O)NCc1ccc(F)cc1	?	-29%
CCCCSCCCNC(=O)Nc1ccc(CC)cc1	i	0%
Cc1cc(C)n2nc(/C(C#N)=C/c3ccccn3)c(C#N)c2n1	?	16%
COc1cccc(OC(=O)c2ccccc2)c1OC(=O)c1ccccc1	-11%	?
COc1ccc(CN(C)C(=O)/C=C/c2ccc(S(=O)(=O)N3CCCCCC3)cc2)cc1	?	?
Cc1n[nH]c(C)c1CCCCOc1ccccc1F	-9%	-16%
CCc1cccc(NC(=S)Nc2ccc(CN3CCOCC3)cc2)c1	12%	-6%
COc1ccc(C(O)P(=O)(OCC(C)C)OCC(C)C)c(OC)c1 (stereo unspecified)	0%	-13%
CCOC(=O)c1ccoc1CSCc1ccc(C(=O)OC)o1	-13%	4%
O=C(CN(c1ccc2c(c1)OCCO2)S(=O)(=O)c1ccccc1)N1CCN(Cc2ccccc2)CC1	i	-11%
COc1cc(Cl)c(S(=O)(=O)N2CCCC2)cc1Cl	0%	-10%
C=CCNc1ncnc2c1ncn2[C@H]1CN(Cc2ccc3c(c2)OCO3)C[C@@H](CO)O1	19%	-1%
COc1ccc(CNC(=O)c2ccc(NC(=O)N3CC4CCCN4c4ccccc43)cc2)cc1 (stereo unspecified)	1%	-5%
CCOc1ccc(NC(=O)CN2CCCC2c2cccs2)cc1S(=O)(=O)N1CCCCC1 (stereo unspecified)	-1%	-20%
CCc1ccc(NC(=O)N(Cc2cn(CC)c3ccccc23)C2CCCCC2)cc1	-21%	-17%
O=C(Nc1ccc([N+](=O)[O-])cc1)Nc1ccc2c(c1)OCCO2	?	-12%
CCN(c1cccc(C)c1)S(=O)(=O)c1ccc2c3c(cccc13)C(=O)N2	?	-23%
O=[N+]([O-])c1ccccc1CN1CCN(S(=O)(=O)Cc2ccccc2)CC1	-7%	-9%
NS(=O)(=O)c1cc2c(cc1Cl)NC=NS2(=O)=O	-15%	-7%&-4%
Cc1ccccc1N1C(=O)CC(Sc2nnc(-c3ccccc3)o2)C1=O (stereo unspecified)	10%	20%
COc1ccc(OC)c(-c2c3cc(O)c(=O)cc-3oc3cc(O)c(O)cc23)c1	i	nt
O=C1NCN(c2ccccc2)C12CCN(C(c1cc3ccccc3o1)c1nnnn1Cc1ccccc1)CC2 (stereo unspecified)	8%	-8%
CC[C@]1(C(=O)OC)[C@H]2C(=O)N(Cc3ccccc3)C(=O)[C@H]2[C@H]2CN=C(SC)N21	i	3%
COc1ccc2oc(C)c(C(=O)c3ccccc3)c2c1	2%	-1%
COc1cc(/C=N/N=C2/NC(=O)C(CC(=O)O)S2)ccc1OCc1ccc(Cl)cc1 (stereo unspecified)	-3%	-10%
CCC(=O)N1CCC(C)(C(=O)Nc2ccc3c(c2)OCO3)C1 (stereo unspecified)	13%	-4%
Cc1ccccc1C(=O)NNC(=O)CSc1nc(-c2ccccc2)cc(=O)[nH]1	-10%	-7%
O=C(O)CSCC(=O)c1ccccc1	-14%	4%

Further records
SMILES	VACV mCherry inh	Vaccinia Venus
Cc1cc(/C=C(\C#N)C(=O)O)c(C)n1C1CC1	-15%	-12%
OC(COc1ccc2ccccc2c1)CN1CCN(c2ccc(F)cc2)CC1 (stereo unspecified)	22%	3%
O=C1CN(C(=O)COC(=O)/C=C/c2ccco2)c2ccccc2N1	i	3%
COc1ccc(C(C(=O)NC2CCCC2)N(CC2CCCO2)C(=O)Cn2nnc(-c3ccc(C)o3)n2)cc1 (stereo unspecified)	-18%	0%
